Source: PubChem BioAssay (National Center for Advancing Translational Sciences (NCATS))
Methyltransferases – Primary Screen for Target Class Profiling of Small Molecule Inhibitors of Methyltransferases; calls only at 40 µM; 25,000 tested, 3.9% active; purified enzyme, MTase-Glo SAH luminescence; hits give low values; active = -50% or lower on at least one of six enzymes; inconclusive = the cases between; inactive = as a rule above -30% on all six;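 note: enzymes were COMT GAMT GNMT HNMT NNMT and PNMT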
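Each enzyme was reacted with SAM and its substrate, with compounds tested once at 40 uM; SAH formed was read by MTase-Glo luminescence.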
Calls only; i = inactive; ? = inconclusive; + = active, no number. % is set by controls: 0 for no effect and ±100 for the full control effect. A portion of the library; rates above refer to the full screens.

| structure | Methyltransferases |
| --- | --- |
| C[C@@H]1O[C@@H](O[C@@H]2[C@@H](O)[C@@H](O)[C@H](O[C@@H]3[C@@H](O)[C@@H](O[C@]4(CO)O[C@H](CO)[C@@H](O)[C@@H]4OC(=O)/C=C/c4ccc(O)cc4)O[C@H](CO)[C@H]3OC(=O)/C=C/c3ccc(O)cc3)O[C@H]2C)[C@H](O)[C@H](O)[C@H]1O | i |
| C=C1C(=O)OC2C1CCC1(C)C(O)CC=C(C)C21 (configuration not stated) | + |
| Cc1ccc(N2C(=O)c3cc(C(C)(C)C)nn3CC2(C)C(=O)NC2CCCCC2)cc1C (configuration not stated) | i |
| CC1CCCCC1NC(=O)C1(C)Cn2c(cc3sccc32)C(=O)N1C1CCCCCC1 (configuration not stated) | i |
| CCOC(=O)c1cc2n(n1)CC(C)(C(=O)NCc1ccccc1)N(c1ccc(OC)cc1)C2=O (configuration not stated) | i |
| CN(Cc1cnn(-c2ccc(F)cc2)c1)c1cc(C2CC(O)C2)ncn1 (configuration not stated) | i |
| O=C1NCCOCCCN(C(=O)C2(c3ccccc3)CC2)[C@H]2CCCC[C@@H]12 | i |
| CNC(=O)c1cc(C)nc2onc(C3CCCN(C(=O)Cc4ccc(OC)cc4)C3)c12 (configuration not stated) | i |
| Cc1ccc(NC(=O)N2CCCC(c3nnc(CN(C)C)n3C)C2)cc1C (configuration not stated) | i |
| O=C(CCc1ccccc1)N1CC(Oc2ccccc2-c2nc(-c3ccccc3)no2)C1 | i |
| COc1ccc(C(=O)N[C@H](C)c2c(-c3ccc(F)cc3)noc2C(=O)O)cc1 | i |
| CCNC(=O)[C@@H]1C[C@H](NC(=O)c2ccc(=O)n(C)c2)CN1Cc1ccoc1 | i |
| COc1cccc(N2C(=O)c3cc4occc4n3CC2(C)C(=O)NC2CCCCCCC2)c1 (configuration not stated) | i |
| CC(C)Cn1c(=O)c2ccc(C(=O)NC(C)C)cc2n2c(=O)n(Cc3cccc(F)c3)nc12 | i |
| CS(=O)(=O)N(Cc1ccco1)CC(O)Cn1c2ccccc2c2ccccc21 (configuration not stated) | i |
| COc1cccc(CC(=O)N2CCCCCCN(C)C(=O)[C@H]3CCC[C@H]32)c1 | i |
| Cc1c(Cl)cccc1N1C(=O)c2cc(-c3ccccc3)nn2CC1(C)C(=O)NCc1ccccc1 (configuration not stated) | i |
| CC1(C(=O)NC2CCCCCC2)Cn2c(cc3sccc32)C(=O)N1CCCN1CCOCC1 (configuration not stated) | i |
| Cc1ccc(NC(=O)Cn2nc3n(C(C)C)c(=O)c4ccc(C(=O)NC(C)C)cc4n3c2=O)cc1 | i |
| COC(=O)C1=CO[C@@H](O[C@@H]2O[C@H](CO)[C@@H](O)[C@H](O)[C@H]2O)[C@H]2[C@@H]1C=C[C@]21C=C([C@H](C)OC(=O)/C=C/c2ccc(O)cc2)C(=O)O1 | i |
| O=C(CCSCc1ccccc1)N1C[C@@H](CN2CCOCC2)[C@@H](CO)C1 | i |
| Cc1ccc(NC(=O)CSc2nnc3n(CCc4ccccc4)c(=O)c4ccccc4n23)cc1 | i |
| CC(C)CCN1C(=O)c2cc3sccc3n2CC1(C)C(=O)NC1CCCCCC1 (configuration not stated) | i |
| Cn1c(=O)c2ccc(C(=O)NC3CCCC3)cc2n2c(=O)n(CC(=O)c3ccc(Cl)cc3)nc12 | i |
| O=C1CN(CC(=O)N2CCC3(CC2)OCCCC3O)C(=O)N1 (configuration not stated) | i |
| CCc1ccc(N2C(=O)CSc3c(c4ccccc4n3C)C2C(=O)NCCC(C)C)cc1 (configuration not stated) | i |
| COc1ccc(F)cc1-c1ccc(CN2CCC(NC(=O)c3ccc(Cl)cc3)C2)cc1 (configuration not stated) | i |
| c1cncc(CN2CC(N3CCc4ccccc43)C2)c1 | i |
| COc1ccc2cc3n(c2c1)CC(C)(C(=O)NC1CCCCC1)N(Cc1cccc(Cl)c1)C3=O (configuration not stated) | i |
| CCCS(=O)(=O)N1CCCC(Cc2noc(-c3cnccn3)n2)C1 (configuration not stated) | i |

A portion taken from the entries so far:
| structure | Methyltransferases |
| --- | --- |
| O=C(CCc1ccccc1)N1CC(Oc2ccccc2-c2nc(-c3ccccc3)no2)C1 | i |
| COc1ccc(C(=O)N[C@H](C)c2c(-c3ccc(F)cc3)noc2C(=O)O)cc1 | i |
| CCNC(=O)[C@@H]1C[C@H](NC(=O)c2ccc(=O)n(C)c2)CN1Cc1ccoc1 | i |
| COc1cccc(N2C(=O)c3cc4occc4n3CC2(C)C(=O)NC2CCCCCCC2)c1 (configuration not stated) | i |

Returning to the listing with the three entries that preceded the break.
| structure | Methyltransferases |
| --- | --- |
| c1cncc(CN2CC(N3CCc4ccccc43)C2)c1 | i |
| COc1ccc2cc3n(c2c1)CC(C)(C(=O)NC1CCCCC1)N(Cc1cccc(Cl)c1)C3=O (configuration not stated) | i |
| CCCS(=O)(=O)N1CCCC(Cc2noc(-c3cnccn3)n2)C1 (configuration not stated) | i |
| CC1(C(=O)NC2CCCCC2)Cn2c(ccc2-c2ccccc2)C(=O)N1Cc1ccco1 (configuration not stated) | i |
| COc1cccc(-c2cc(C(=O)N3CCN(c4ncccn4)CC3)c3cnn(C)c3n2)c1 | i |
| CC1CCCCC1NC(=O)C1(C)Cn2c(nc3ccccc32)C(=O)N1CCc1ccccc1 (configuration not stated) | i |
| O=S(=O)(c1ccccc1)N(CC(F)(F)F)c1ccc(C(O)(C(F)(F)F)C(F)(F)F)cc1 | i |
| O=C(Cc1c[nH]c2ccccc12)NCCc1c[nH]c2ccc(Cl)cc12 | i |
| COCCn1nc2n(c1=O)CCN(Cc1cccc(OC)n1)CC2 | i |
| O=C(NCc1ccccn1)C1CCN(c2cc(C3CC(O)C3)ncn2)CC1 (configuration not stated) | i |
| O=C(Cn1nc2nc(Nc3ccc(F)cc3)ccn2c1=O)Nc1ccccc1F | i |
| CCCn1c(=O)c2ccc(Cl)cc2n2c(SCC(=O)NC3CCCCC3)nnc12 | i |
| CC1(CO)CC2C(O)C(=O)C3(CO)CC3(C)C2C1 (configuration not stated) | i |
| CN(C(=O)CCS(=O)(=O)c1ccccc1)C1CCc2nn(C)c(=O)n2CC1 (configuration not stated) | i |
| COc1ccc2cc3n(c2c1)CC(C)(C(=O)NCC1CCCO1)N(Cc1cccs1)C3=O (configuration not stated) | i |
| Cc1noc2c(NCCc3ccccn3)cc(-c3ccccn3)nc12 | ? |
| COc1ccc(Br)cc1CN1C(=O)c2cc3ccccc3n2CC1(C)C(=O)NCc1ccccc1 (configuration not stated) | i |
| Cc1ccc(Cn2nc3n(CCC(C)C)c(=O)c4ccccc4n3c2=O)cc1 | i |
| CCCn1c(=O)c2ccc(C(=O)NC(C)CC)cc2n2c(=O)n(CC(=O)Nc3ccc(C)cc3C)nc12 (configuration not stated) | i |
| C[C@@H]1O[C@@H](O[C@H]2[C@H](OC(=O)[C@]34CCC(C)(C)C[C@H]3C3=CCC5[C@@]6(C)C[C@H](O)[C@H](O[C@@H]7O[C@H](CO)[C@@H](O)[C@H](O)[C@H]7O)[C@@](C)(CO)C6[C@H](O)C[C@@]5(C)[C@]3(C)CC4)OC[C@H](O)[C@@H]2O)[C@H](O)[C@H](O)[C@H]1O[C@@H]1OC[C@@H](O)[C@H](O[C@@H]2OC[C@](O)(CO)[C@H]2O)[C@H]1O (some centres not stated) | i |
| COc1ccc(CC(=O)NC2CCN(c3nnc4cccc(C)n34)CC2)cc1 | i |
| O=C(O[C@H]1[C@@H]2C=CO[C@@H](O[C@@H]3O[C@H](CO)[C@@H](O)[C@H](O)[C@H]3O)[C@@H]2[C@@]2(CO)O[C@@H]12)c1ccc(O)cc1 | i |
| COc1cccc(CNC(=O)c2ncn3c2C(=O)N(C2CC2)C(C)(C(=O)NCc2ccc(F)cc2)C3)c1 (configuration not stated) | i |
| CCc1ccccc1NC(=O)Cn1nc2n(C(C)C)c(=O)c3ccc(C(=O)NC(C)C)cc3n2c1=O | i |
| Cc1cc2c3c([nH]c2cc1S(=O)(=O)NCCN1CCN(c2ccccc2F)CC1)CCCC3=O | i |
| CC1(C(=O)NC2CCCC2)Cn2c(ccc2-c2ccco2)C(=O)N1Cc1ccccc1Cl (configuration not stated) | i |
| Cc1nnc2n1CCC(NC(=O)CCCc1nc3ccccc3s1)CC2 (configuration not stated) | i |
| CC1(C(=O)NC2CCCCC2)Cn2c(cc3ccccc32)C(=O)N1Cc1ccccc1 (configuration not stated) | i |
| CC1CCCCN1c1nc2c(S(=O)(=O)c3ccccc3)nnn2c2ccc(Cl)cc12 (configuration not stated) | i |
| Cn1ccnc1-c1cn(Cc2ccccc2Cn2cccn2)nn1 | i |
| O=C1c2ccccc2C(=O)c2cc(S(=O)(=O)NCCO)ccc21 | i |
| CC1(C(=O)NC2CCCCC2)Cn2nc(-c3ccco3)cc2C(=O)N1Cc1ccc2c(c1)OCO2 (configuration not stated) | i |
| COc1ccc(-c2nnc3n(Cc4ccccc4)c(=O)c4ccccc4n23)cc1 | i |
| CCCCN1C(=O)c2cc(C(=O)Nc3cccc(SC)c3)nn2CC1(C)C(=O)NC1CCCC1 (configuration not stated) | i |
| Cc1cc(NC(=O)N2CCn3cccc3C2C(C)C)ccc1Br (configuration not stated) | i |
| CCCN1CCCC2(CCN(C(=O)c3ccc4nc(C)sc4c3)C2)C1=O (configuration not stated) | i |
| O=C(c1ccccn1)N1CC(CO)C2(CCNCC2)C1 (configuration not stated) | i |
| COc1ccc(-c2cnc(Nc3ccc(CN4CCN(C)CC4)cc3)c3c2CCO3)cn1 | ? |
| CCCn1c(=O)c2ccc(C(=O)NC3CCCCC3)cc2n2c(=O)n(Cc3ccccc3Cl)nc12 | i |
| CO[C@H]1c2cc(C(C)C)c(O)c(O)c2[C@@]23CCCC(C)(C)C2[C@@H]1OC3=O (some centres not stated) | i |
| Cn1cnc2c(F)c(Nc3ccc(Br)cc3Cl)c(C(=O)NOCCO)cc21 | i |
| CC1CCCC(C)N1CCCN1C(=O)c2cc3occc3n2CC1(C)C(=O)NC1CCCCC1 (configuration not stated) | i |
| Cc1ccc(CNC(=O)C2(C)Cn3nc(C(=O)NCCCc4ccccc4)cc3C(=O)N2C)cc1 (configuration not stated) | i |
| COc1ccc(-c2cc3n(n2)CC(C)(C(=O)NCc2ccccc2)N(c2ccc(C)cc2)C3=O)cc1 (configuration not stated) | i |
| Cc1ccccc1[C@H]1C[C@@H](O)[C@@H](O)[C@@H]1NC(=O)c1c(-c2ccccc2)noc1C | i |
| Cc1ccc(NC(=O)CN(C)S(=O)(=O)c2ccc3[nH]c4c(c3c2)CCCC4)c(Br)c1 | i |
| CCc1cc2c(cc3n2CC(C)(C(=O)NC2CCCCCC2)N(CCN(CC)CC)C3=O)s1 (configuration not stated) | i |
| COC1CC/C=C(\C)C(=O)Nc2cc(O)cc(c2)CC(C)CC(OC)C(O)C(C)/C=C(\C)C1OC(N)=O (configuration not stated) | i |
| CCN1C(=O)c2cc3ccccc3n2CC1(C)C(=O)NCC(=O)NCCc1ccccc1C (configuration not stated) | i |
| CCOC(=O)c1cc2n(n1)CC(C)(C(=O)NC1CCCCCC1)N(c1cccc(Cl)c1C)C2=O (configuration not stated) | i |
| COc1ccc(C(=O)N2CC(CO)C3(CCNCC3)C2)cc1 (configuration not stated) | i |
| CC(=O)N1CCC2(CCN(C(=O)c3ccc(Cl)cc3)CC2)Oc2ccccc21 | i |
| CCOC(=O)c1cc2n(n1)CC(C)(C(=O)NC1CCCCC1)N(c1ccc(C)c(F)c1)C2=O (configuration not stated) | i |

Next compounds follow.
| structure | Methyltransferases |
| --- | --- |
| CC(C)CCC(=O)CC1c2ccccc2C(=O)N1c1ccc2ccc(Cl)nc2n1 (configuration not stated) | i |
| O=C(NCC1CCN(Cc2ccccn2)C1)Nc1ccc(F)cc1 (configuration not stated) | i |
| NC1Nc2ccccc2C1(N)CC1NC(=O)C(Cc2ccccc2)NC(=O)C(Cc2ccccc2)NC1=O (configuration not stated) | i |
| CCOc1cc(C(C)(C)C)ccc1C1=NC(C)(c2ccc(Cl)cc2)C(C)(c2ccc(Cl)cc2)N1C(=O)N1CCN(CCCS(C)(=O)=O)CC1 (configuration not stated) | ? |
| Cc1ccc(CNC(=O)CCc2nnc3n(Cc4ccc(F)cc4)c(=O)c4ccccc4n23)cc1 | i |
| COc1ccc(N(C(=O)c2cccnc2)S(=O)(=O)c2ccc3c(c2)n(C)c(=O)n3C)cc1 | i |
| c1ccc(-c2csc(N3CCOCC3)n2)cc1 | i |
| CC(C)CNC(=O)c1ccc2c(=O)n(C(C)C)c3nn(Cc4ccc(Cl)cc4)c(=O)n3c2c1 | i |
| CC(C)(C)C(=O)N1CCC(N2CCCC(C(=O)NCc3ccccc3)C2)CC1 (configuration not stated) | i |
| COc1ccc(CC(=O)N2CCCC2C(=O)N2CCC(c3nc4ccncc4[nH]3)C2)cc1 (configuration not stated) | i |
| COc1cc2ncnc(Nc3cccc(I)c3)c2cc1OC | + |
| CCCCOC(=O)NS(=O)(=O)c1sc(CC(C)C)cc1-c1ccc(Cn2ccnc2)cc1 | ? |
| Cc1ccccc1Cn1nc2n(Cc3ccccc3)c(=O)c3ccc(C(=O)NC4CCCC4)cc3n2c1=O | i |
| Cc1cccc(N2C(=O)c3cc4occc4n3CC2(C)C(=O)NC2CCCCC2)c1C (configuration not stated) | i |
| FC1(F)CN[C@H](c2nnc(C3CC3)o2)C1 | i |
| Cc1ccccc1N1Cc2c(NCc3ccc(F)cc3)ncnc2N(C)CC1=O | i |
| COC(=O)c1ncn2c1C(=O)N(Cc1ccco1)C(C)(C(=O)NC1CCCCCC1)C2 (configuration not stated) | i |
| CC(C)CCN1CC(Oc2ccc(F)cc2F)C1 | i |
